Calb biofilm kill: mixtures killing C. albicans biofilm; 120,000 compounds, 0.02% hits; C. albicans biofilm persisters + clotrimazole, fluorescence viability; primary screen in compound mixtures of four per well; inhibition, % at 7.6 µM;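 active means inhibition above 30.3% in the primary screen of four-compound pools, then above 30% when the compound was retested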;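 further: compounds exposed to preformed 24 h biofilms for 48 h; the number belongs to the whole pool; some results filed as inactive read as strong as hits; inactives centre near 12; 0% = biofilm with clotrimazole alone and 100% = kill control; retested singly at about 60 µM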
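Incubation: 24 h biofilm formation, then 48 h compound exposure, 37 °C | Material: C. albicans biofilms | Buffer or medium: RPMI/MOPS medium, pH 7.0 | Measured by: 2-h Alamar Blue fluorescence, 535/590 nm excitation/emission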
Starred values were filed as active, the others as inactive. A portion of the library; the hit share may differ from the screen's.

SMILES	Calb biofilm kill
Cc1ccc(C)c2[nH]c(=O)c(CCNC(=O)Cc3cccs3)cc12	16
CCOc1ccc(NC(=O)N2CCC(n3nnc4ccccc43)CC2)cc1	-14
CN(C(=O)CSc1nc(O)cc(=O)n1C1CCCC1)c1ccccc1	-1
CC(C)CC(=O)N1CCN(CC2CC=CCC2)CC1 (stereo not given)	15
CC(C)[C@H]1CN=C2N(C[C@H](C)NC(=O)CCC3CCCCC3)[C@H](Cc3ccc(O)cc3)CN21	15
CCOC(=O)c1sc(NC(=O)Cc2c(F)cccc2Cl)nc1C	9
COc1cc(CC(NC(C)=O)C(=O)NC2CCN(C(=O)C3CC3)CC2)cc(OC)c1 (stereo not given)	15
Cc1cc2c(cc1C)N(C(=O)CSc1nncn1C)C(C)(C)c1ssc(=S)c1-2	8
COc1ccc(NC(=O)C(=O)NCC(=O)Nc2cccc(C(F)(F)F)c2)cc1	21
Cc1ccc(S(=O)(=O)N2CCN(C(=O)c3ccc([N+](=O)[O-])cc3)C2)cc1	20
CCC(CO)NCc1sccc1C (stereo not given)	12
Nc1nc(NCc2ccco2)nc(N2CCCC2)c1[N+](=O)[O-]	-5
COc1ccc(C(=O)c2ccccc2Cl)cc1OC	7
CCn1c(=O)[nH]c(=O)c2c(N)c(C(=O)c3cc(F)ccc3F)sc21	10
COc1ccc(/C=C(\C#N)C(=O)OCC(=O)Nc2c(C)cccc2C)cc1	12
Cc1cccc(N2C(=O)c3cccc4c(N5CCCCC5)c([N+](=O)[O-])cc(c34)C2=O)c1C	13
Cc1ccc2[nH]c(C)c(CCNC(=O)C3CCCCC3C(=O)OCC(F)(F)F)c2c1 (stereo not given)	17
CCC(C)NC(=O)CNS(=O)(=O)c1ccc(C)cc1 (stereo not given)	7
CC(=O)Nc1cccc(C(=O)/C=C/c2ccc[nH]2)c1	24
CCOC(=O)CSc1nc(C)cc(C)c1C(N)=O	7
O=C(O)C12C[C@H]3C[C@@H](C1)CC(n1ncc(N4CCN(c5ccccc5)CC4)c(Cl)c1=O)(C3)C2	20
COC(=O)CCN(C(=O)c1ccc(Cl)c([N+](=O)[O-])c1)c1ccccn1	10
NC12NC(=O)C3(O)C4C5CC(C6C5C3C61)C42 (stereo not given)	15
COc1cc(/C=N/N(C)S(=O)(=O)c2ccc(C)cc2)cc([N+](=O)[O-])c1O	14
O=C(NC(=S)Nc1ccccc1N1CCOCC1)c1ccc(-c2cc(Cl)ccc2Cl)o1	0
Cc1nnc(SCC(=O)Nc2ccc(-c3nc4ccccc4s3)cc2)s1	8
Cc1cccc(/C(N)=N/OC(=O)Cc2ccccc2)c1	9
O=C(COC(=O)c1ccccc1)Nc1cc(Cl)ccc1Oc1ccccc1	19
CCN1CCN(Cc2c(O)ccc3c2O/C(=C\c2ccc(C)cc2)C3=O)CC1	5
CCN(CCO)C(=S)Nc1cc(C(=O)OC)ccc1C(=O)OC	13
O=[N+]([O-])c1ccc(-c2cn3nc(-c4ccccc4)c(-c4ccccc4)nc3n2)cc1	12
COCCCNCCCCOc1ccc(OCc2ccccc2)cc1	11
COC(=O)C1CCN(C(=O)c2cc(=O)[nH]c3ccccc23)CC1	8
COc1cc(C(=O)N2CCc3ccccc32)ccc1OCc1c(C)noc1C	18
COc1ccc2c(c1)CC(=O)NC=C2	15
CC(C)OCC(O)CN1CCN(C(c2ccccc2)c2ccccc2)CC1 (stereo not given)	9
COCCN(C(=O)c1ccccc1OC1CCN(S(C)(=O)=O)CC1)C(C)C	8
Cc1cc(NC(=O)C2CC(=O)N(c3ccccc3)C2)no1 (stereo not given)	10
COc1ccccc1N=C1SC(C(=O)Nc2cccc(Cl)c2Cl)C(N)=C1C(N)=O (stereo not given)	17
Cc1cnc(C(=O)OCC(=O)NCc2ccc3c(c2)OCO3)cn1	24
O=[N+]([O-])c1cccc(-c2nc(N3CCOCC3)c3ccccc3n2)c1	11
Cc1cc(C(=O)Nc2cccc3ccccc23)n(-c2ccccc2)n1	10
O=C(COC(=O)c1cnc(Cl)c(Cl)c1)NCc1ccc2c(c1)OCO2	9
O=C(C1=C[C@@H](c2coc3ccccc3c2=O)C[C@@H](OCCCCO)O1)N1CCN(Cc2ccc3c(c2)OCO3)CC1	18
CCOc1ncccc1C(=O)N1CCN(c2cccc(C)c2C)CC1	9
COc1cc(/C=N/NC(=O)c2ccc3nc[nH]c3c2)cc(OC)c1OC	9
CCOC(=O)N1CCC(N2C(=O)c3ccccc3C2Nc2ccc(S(=O)(=O)N3CCCCC3)cc2)CC1 (stereo not given)	13
Cc1[nH]n(-c2ccccc2)c(=O)c1C=NCc1ccco1	9
COc1cccc(C(=O)Nc2ccc(NC(=O)c3ccco3)c(Cl)c2)c1	13
COC(=O)c1cc(NC(=O)c2ccc(OC)cc2)c(=O)oc1C	9

Other structures follow:
SMILES	Calb biofilm kill
CCOc1ccc(N2C(=O)S/C(=C\c3ccc(O)c(OCC)c3)C2=O)cc1	2
COc1ccc(NC(=O)Nc2cnccn2)cc1	27
CCOC(=O)c1[nH]c2ccc(OC)cc2c1NC(=S)N1CCN(c2ccc(F)cc2)CC1	19
Cc1ccccc1-c1nc(-c2ccc(NC(=O)c3ccc(Br)o3)cc2)no1	19
CCNS(=O)(=O)c1ccc(OC)c(C(=O)NC2CCCCC2)c1	-6
COc1cccc(CN2CCN(C3CSCCSC3)CC2CCO)c1 (stereo not given)	20
COc1ccc(C(c2nnnn2CS(=O)(=O)c2ccc(C)cc2)N2CCN(c3ncccn3)CC2)cc1 (stereo not given)	11
Cc1cccc(Cc2cnc(NC(=O)C3=NCCN3)s2)c1	19
CN(C)S(=O)(=O)c1ccc(C(=O)NCC2(N3CCCCC3)CCCCC2)cc1	5
COc1ccc(C(=O)NNC2=CC(=O)CC(C)(C)C2)cc1OC	12

As a short view, 4 of the compounds above.
SMILES	Calb biofilm kill
CCOc1ccc(N2C(=O)S/C(=C\c3ccc(O)c(OCC)c3)C2=O)cc1	2
COc1ccc(NC(=O)Nc2cnccn2)cc1	27
CCOC(=O)c1[nH]c2ccc(OC)cc2c1NC(=S)N1CCN(c2ccc(F)cc2)CC1	19
Cc1ccccc1-c1nc(-c2ccc(NC(=O)c3ccc(Br)o3)cc2)no1	19

Remaining list, next part:
SMILES	Calb biofilm kill
CCCC/C(O)=C1\C(=O)CC(C)(C)CC1=Nc1ccc(N)cc1	13
CN(Cc1nc(-c2ccccc2)no1)C1CCOCC1	27
NNC(=O)CSc1nnnn1-c1ccccc1	-1
O=S1(=O)CCC(n2ncc3c2/C(=C/c2ccccc2)CC3)C1 (stereo not given)	12
O=C(c1ccc(F)cc1)N1CCN(C(=O)c2ccc([N+](=O)[O-])cc2)CC1	10
Nc1ccc(CSc2ccc(Cl)cc2)cc1	17
Cc1csc2c(SCC(=O)NNC(=O)C(Cl)Cl)ncnc12	33
COc1ccc2c(c1)OC/C(=C/c1cccs1)C2=O	19
COC(=O)CCC(=O)N1CCOCCOCCN(C(=O)CCC(=O)OC)CCOCCOCC1	11
CCNC(=O)C1Cc2ccccc2CN1S(=O)(=O)c1ccc(F)cc1 (stereo not given)	24

Next section; it opens with the three that closed the last part.
SMILES	Calb biofilm kill
COc1ccc2c(c1)OC/C(=C/c1cccs1)C2=O	19
COC(=O)CCC(=O)N1CCOCCOCCN(C(=O)CCC(=O)OC)CCOCCOCC1	11
CCNC(=O)C1Cc2ccccc2CN1S(=O)(=O)c1ccc(F)cc1 (stereo not given)	24
O=C(COC(=O)Cc1n[nH]c(=O)c2ccccc12)Nc1cccc(C(F)(F)F)c1	3
NNC(=O)CN1C(c2ccccc2Br)=Nc2ccc(Br)cc2C1c1ccccc1 (stereo not given)	14
COC(=O)c1ccccc1Oc1ccc(NC(=O)C(C)(C)CCl)cc1	5
Cc1cc(C)n(-c2ccc(C)c(Cl)c2)n1	6
COc1cccc(NC(=O)COC(=O)Cc2ccc(Cl)cc2)c1	9
CN(C(=O)COC(=O)c1ccc2c(c1)OCCO2)c1ccccc1	8
Cc1cc(C)c(NC(=O)Cn2cnc3c(oc4ccccc43)c2=O)c(C)c1	15
Cc1cc(NC(=O)c2ccccc2F)on1	12
C#CCOCCOCCOCCNc1nc(N2CCN(C(=O)[C@H](Cc3cc4ccccc4[nH]3)n3cc([C@@H](N)C(C)CC)nn3)CC2)nc(N2CCN(C(=O)[C@H](Cc3cc4ccccc4[nH]3)n3cc([C@@H](N)CC(C)C)nn3)CC2)n1 (stereo not given in full)	14
Brc1ccc(-c2csc(N/N=C/c3cccnc3)n2)cc1	10
Cc1cccc(N2CCN(C(=O)CSc3ccsc3[N+](=O)[O-])CC2C)c1 (stereo not given)	16
O=C(O)c1cccc2c1C(=O)c1cccc3snc-2c13	5
Cc1ccc(Cn2c(SCC(=O)N/N=C/c3ccccc3OCC(=O)O)nc3ccccc32)cc1	23
Cc1nc2ccccn2c1C(=O)N/N=C/c1ccc2c(c1)OCO2	-1
O=C(N/N=C/c1c[nH]c2ccccc12)C1COc2ccccc2O1 (stereo not given)	18
Nc1cnn(C2OC(CO)C(O)C2O)c(=O)n1 (stereo not given)	7
Cc1cc(CNC(=O)Cn2nc(C)c([N+](=O)[O-])c2C)c2ccccc2n1	-1
O=[N+]([O-])c1ccc(N2CCNCC2)cc1Sc1nc2ccccc2[nH]1	-3
Cc1cccc(NC(=O)CSc2nc3[nH]ncc3c(=O)[nH]2)c1C	15
N/C(=N\OC(=O)C12CC3CC(CC(C3)C1)C2)c1ccccn1	11
Cc1ccc(C)c(NC(=O)CN(C)C(=O)[C@@H](NC(N)=O)C(C)C)c1	4
CN(C)/C=C1\C(=O)NN=C1c1ccccc1	6
CCC(C)NC(=O)COC(=O)Cc1sc(N)nc1-c1ccc(C)cc1 (stereo not given)	10
C/C(=N\NC(=O)CCC(=O)O)c1c(-c2ccccc2)c2cc(Br)ccc2[nH]c1=O	4
CCOc1ccc(NC(=S)NNC(=S)Nc2cccc(C(F)(F)F)c2)cc1	8
CCOC(=O)C1(CCc2ccccc2)CCN(C(=O)CCc2cnn(C)c2)CC1	17
Cc1cccc(N/N=C/c2ccc(O)c(O)c2O)c1	16
O=C(OCc1cc2ccccc2[nH]c1=O)c1cccc([N+](=O)[O-])c1	10
COC(=O)c1sc(=S)n(Cc2ccccc2)c1C	21
O=C(Cc1ccc([N+](=O)[O-])cc1)N1CCCc2ccccc21	6
CCN(CC)c1ccc(/C=N/NS(=O)(=O)c2cccc([N+](=O)[O-])c2)cc1	20
NS(=O)(=O)c1ccc(CCN=Cc2ccccc2O)cc1	9
Cc1cnc(C(=O)N2CCCC(C(=O)c3ccc(C(F)(F)F)cc3)C2)cn1 (stereo not given)	6
CCc1cc(OCCOCCN(C)C)ccc1Cl	19
COCCNC(=O)c1ccc(NC(=O)C2(c3ccccc3)CCCC2)cc1	-28
CC1=CC(c2ccccc2)NC(=S)N1 (stereo not given)	12
COc1ccc(NC(=O)C(NC(=O)Cc2cccs2)c2ccccc2)cc1 (stereo not given)	12
CC(=O)Nc1ccc(OC(=O)c2cc3cc(Br)ccc3oc2=O)cc1	8
O=C(COC(=O)c1ccc(S(=O)(=O)N2CCCC2)cc1)Nc1cccnc1Cl	10
COc1cc2[nH]c(=S)nc(NCc3cccs3)c2cc1OC	12
CCOc1ccc(Oc2ccc(C(F)(F)F)cc2N)cc1	10
CC1CCC/C(=N\NC(=O)Nc2ccccc2)C1 (stereo not given)	6
COc1ccc(-c2[nH]ncc2CN(C)Cc2c(C)n[nH]c2C)c(OC)c1	2
CCOC(=O)N1CCN(c2nc3ccc(C(=O)c4ccccc4)cc3n3cnnc23)CC1	22
CC(=O)/C=C(\C)Nc1c(C)n(C)n(-c2ccccc2)c1=O	12
Cc1cc(OCc2cccc(Cl)c2)c(C)cc1CN1CCOCC1	13
Cc1ccc(C)c(-n2c(-c3csc(C)c3C)n[nH]c2=S)c1	12
O=C(O)C1CCC1C(=O)Nc1nc(-c2ccc(Cl)s2)cs1 (stereo not given)	8
C/C(N)=C(/C#N)C(=O)CSc1cc(C)c2cc(C)cc(C)c2n1	-16
Cc1noc(NC(=O)c2ccc(Cl)cc2)c1Cl	14

Later entries:
SMILES	Calb biofilm kill
CC(C)CNC(=O)CN1C(=O)NC(Cc2c[nH]c3ccccc23)C1=O (stereo not given)	26
Cn1cccc1/C=C1\SC(=O)N(CC(=O)Nc2ccc(F)cc2)C1=O	24
C/C(=N\NC(=O)CSc1nc2ccccc2c(=O)n1-c1ccccc1C)c1cccs1	8
Nc1cc(S(=O)(=O)N2CCOCC2)ccc1Oc1ccc(F)cc1	13
Cc1oc(-c2cccs2)nc1CN1CCN(C2CCCC2)C(CCO)C1 (stereo not given)	-2
CCCCC1=CC2=CC(=O)C(C)(OC(=O)CC)C(=O)C2=CN1CCc1c[nH]c2ccccc12 (stereo not given)	10
COc1cccc(CC2CC(=O)N(c3ccc4c(C)cc(=O)oc4c3)C2=O)c1 (stereo not given)	11
O=C(Nc1ccc(Cl)cc1)Nc1nnc(Cc2ccc([N+](=O)[O-])cc2)s1	12
O=C(COC(=O)CNC(=O)c1ccco1)Nc1ccc(F)cc1	3
CCOC(=O)c1c(NC(=O)CN2C(=O)c3ccccc3C2=O)sc(Cc2ccc3c(c2)OCO3)c1C	0
O=C1Nc2ccc(Br)cc2C1=Nc1cccnc1	16
Cc1ccc(C(c2nnnn2CS(=O)(=O)c2ccc(C)cc2)N2CCN(c3ncccn3)CC2)cc1 (stereo not given)	13
Cc1cc(N2CCN(C)CC2)nc(-c2ccccc2O)n1	15

Exported bar-delimited: seven of the compounds above
SMILES | Calb biofilm kill
Cn1cccc1/C=C1\SC(=O)N(CC(=O)Nc2ccc(F)cc2)C1=O | 24
C/C(=N\NC(=O)CSc1nc2ccccc2c(=O)n1-c1ccccc1C)c1cccs1 | 8
Nc1cc(S(=O)(=O)N2CCOCC2)ccc1Oc1ccc(F)cc1 | 13
Cc1oc(-c2cccs2)nc1CN1CCN(C2CCCC2)C(CCO)C1 (stereo not given) | -2
CCCCC1=CC2=CC(=O)C(C)(OC(=O)CC)C(=O)C2=CN1CCc1c[nH]c2ccccc12 (stereo not given) | 10
COc1cccc(CC2CC(=O)N(c3ccc4c(C)cc(=O)oc4c3)C2=O)c1 (stereo not given) | 11
O=C(Nc1ccc(Cl)cc1)Nc1nnc(Cc2ccc([N+](=O)[O-])cc2)s1 | 12

From PubChem
